# miR-21 FLuc: raises the signal of a miR-21 reporter | HeLa miR-21 FLuc reporter, luciferase, 48 h | AID 2288 | Potency, µM (doses to about 38.3 µM), without a hit: at the highest dose reporter change, positive = more light | 340,000 tested, under 10 active; active = well fitted rising curve with a large enough effect; inconclusive = small, poorly fitted or top-dose-only effect; inactive = no such curve, though single readings can be large or run the other way;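 also: % of control where 0% means no effect; miR-21 action dims this reporter so a rising signal means less miR-21 action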
#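 Using DMEM plus 10% FBS, HeLa miR-21-FLuc cells are incubated with test compounds (final up to about 40uM) for 48 hours; firefly luciferase signal is then imaged following reagent-mediated lysis.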
# * = called active by the depositor; ? = inconclusive; [ ] = dose if it differs, or a comment.
miR-21 FLuc	Molecule
-3%	CCN(Cc1ccccc1)C(=O)Cn1c(=O)n(-c2ccc(Cl)c(Cl)c2)c(=O)c2c(C)c(C(=O)N(C)C)sc21
-5%	CC(C)C(=O)Nc1ccccc1C(=O)OCc1cc(=O)n2nc(C3CC3)sc2n1
0%	COc1ccc(CNC(=O)C2CCN(S(=O)(=O)c3cn(C)cn3)CC2)cc1
-2%	Cc1ccc(C2=NN(CC(=O)NCCCN(CC(C)C)CC(C)C)C(=O)CC2)cc1
10%	CCOC(=O)c1cnn(-c2ccc(C(=O)Nc3ccc(C(C)=O)cc3)cc2)c1N
-19%	COc1ccc(-c2nc(C)c(CCNC(=O)C(=O)Nc3ccccc3C#N)s2)cc1OC
-7%	COc1ccccc1CNCCSc1nnnn1C
-26%	Cc1cccc(C)c1NC(=O)c1oc2ccc3c(c2c1C)C(=O)CC(C)(C)O3
0%	COc1ccc(-c2cc(C(=O)NCc3ccccc3)c3c(-c4ccccc4)[nH]nc3n2)cc1
-1%	O=C(CSc1nc2ccccc2c2nc(-c3ccccc3)nn12)Nc1ccc(F)cc1
?	COc1ccc(Nc2ncc(C(=O)N3CCN(c4ccc(OC)cc4)CC3)c3ccccc23)cc1
-9%	COc1cccc(C(=O)COC(=O)c2cc(-c3cccs3)nc3ccccc23)c1
6%	CN(C(=O)CSc1nc2ccc(NC(=O)COc3ccccc3)cc2s1)c1ccccc1
4%	O=C(NC1CC(=O)N(c2ccc(Cl)cc2)C1)C(=O)c1c[nH]c2ccccc12 (stereo not drawn)
26%	Cc1c(C(=O)Nc2ccc(F)cc2)oc2ccc(S(=O)(=O)N3CCCCCC3)cc12
-25%	CC(C)(C)C1CCc2c(sc(NC(=O)CCC(=O)O)c2C(=O)Nc2ccccc2C(F)(F)F)C1 (stereo not drawn)
-3%	COCCN(Cc1ccco1)C(=O)c1cc2c(Cl)nc3ccc(C)cc3c2s1
1%	O=C(Cn1ncc2c3ccccc3n(Cc3ccccc3)c2c1=O)NCc1cccs1
8%	Cc1ccc(C)c(NC(=O)CSc2nnc3[nH]c(=O)cc(-c4ccccc4)n23)c1
9%	CCC(=O)Nc1ccc(CC)cc1-c1nc2ccccc2n(CC(=O)Nc2cccc(OC)c2)c1=O
-19%	COc1ccc(CCNC(=O)C(=O)Nc2ccc(C)c(C)c2)cc1
?	Cc1cccc(NC(=O)C(=O)NCC(c2cccnc2)N2CCOCC2)c1 (stereo not drawn)
-10%	COc1ccc(C)cc1NC(=O)CN1C(=O)CCc2cc(S(=O)(=O)N3CCOCC3)ccc21
-9%	O=C(NCC1CCN(Cc2cccc(F)c2)CC1)c1cc2ccc3cccnc3c2[nH]1
0%	CCc1ccc(S(=O)(=O)NCc2nc3cccnc3n2Cc2cccc(OC)c2)cc1
-7%	Clc1ccccc1Cn1c(-c2cccs2)nc2ccccc21
-24%	CCn1c(SCCOc2ccccc2F)nc2ccccc21
-18%	Cc1ccc(NC(=O)C(=O)NCCCN2CCOCC2)cc1C
23%	CCn1cc(C(=O)NCc2ccc(C)cc2)c(=O)c2cc(S(=O)(=O)N(C)C3CCCCC3)ccc21
18%	Cc1sc2c(c1C)c(=O)n(Cc1ccccc1)c(=O)n2CC(=O)Nc1cccc(Cl)c1
-2%	CCOC(=O)c1ccc(-n2c(-c3ccc(C)cc3)c(C)n3c4c(=O)n(C)c(=O)n(C)c4nc23)cc1
14%	COc1ccc(-c2nc(CNS(=O)(=O)c3ccc(Br)cc3)cs2)cc1
-4%	COc1ccc(CCn2c(=O)c3cccnc3n(CC(=O)Nc3ccc(C)c(F)c3)c2=O)cc1OC
2%	COc1cccc(CNC(=O)CCc2nnc3n(C)c(=O)c4sccc4n23)c1
-5%	CCn1cc(S(=O)(=O)c2ccc(OC)cc2)c(=O)c2cc(F)c(N3CCCCCC3)cc21
4%	CCCSc1nc2c(c(=O)[nH]1)C(c1ccc(O)c(OCC)c1)CC(=O)N2 (stereo not drawn)
4%	Cn1c(=O)c2c(-c3cccc(Br)c3)n(CCO)cc2n(C)c1=O
-45%	CN(C)c1ccc(CNc2nc(-c3ccco3)nn2S(=O)(=O)c2ccc3ccccc3c2)cc1
10%	Cc1ccc(S(=O)(=O)N2CCCc3cc(NC(=O)c4ccc(Cl)cc4)ccc32)cc1
0%	CN(C)S(=O)(=O)N(CC(=O)NCCSCc1c(F)cccc1Cl)c1ccccc1
-40%	CCOc1ccc(C(=O)Nc2ccc(-c3nc4ccccc4s3)c(C)c2)cc1OCC
2%	COc1ccccc1CNC(=O)C1CCN(c2nc3ccc(C)cc3[nH]2)CC1
-23%	Cc1nn2c(-c3cccc(NC(=O)c4ccccc4)c3)nnc2c2ccccc12
-38%	O=C(Nc1ccccc1F)c1ccc(-c2ccccc2)s1
5%	Cc1ccc(NC(=O)Cn2nc(C(F)(F)F)c3c2CCCC3)cc1
7%	COc1cc(NC(=O)c2cc(C3CC3)nc3c2c(C)nn3-c2ccc(C)cc2)cc(OC)c1
18%	COc1ccccc1CNC(=O)c1cc2c(=O)n(Cc3cccs3)ccc2nc1C
-17%	O=c1c(N2CCCCC2)csc2ccc(F)cc12
-4%	Cc1cccc(NC(=O)C2CCCN(S(=O)(=O)c3c(C)noc3/C=C/N(C)C)C2)c1C (stereo not drawn)
-13%	Cc1nc(N2CCOCC2)c2c(C(=O)NCc3ccc(Cl)cc3)c(C)oc2n1
0%	CCOC(=O)c1c(-c2ccccc2)csc1NC(=O)c1cc(-c2ccc(Br)cc2)on1
-31%	Cc1nc(-n2nc(C)c(CCC(C)C)c2C)sc1C(=O)Nc1ccc(Cl)cc1
8%	CC(=O)c1cccc(NC(=O)CCc2nc3cccnc3n2Cc2cccs2)c1
-27%	Cc1c(Cl)cccc1NC(=O)c1ccc2c(c1)CCCN2S(C)(=O)=O
?	CCOc1ccc(C(=O)/C=C/c2cn(CC(O)CN3CCCCCC3)c3ccccc23)cc1 (stereo not drawn)
-2%	Cc1ccc(C(=O)COC(=O)C(CC(C)C)NC(=O)C2CCC(C)CC2)cc1 (stereo not drawn)
5%	Cc1ccc(-n2c(=O)c3c(cnn3C)n(CC(=O)Nc3cccc(Cl)c3)c2=O)cc1
-1%	CCOc1ccccc1CNC(=O)C1CCN(S(=O)(=O)c2c(C)noc2/C=C/c2ccccc2F)CC1
-10%	Cc1cc2c(cc1S(=O)(=O)N1CCC(C)CC1)OCC(=O)N2
0%	Cc1cccc(-n2c(SCC(=O)Nc3ccccc3Cl)nc3n[nH]c(C)c3c2=N)c1

# The list goes on:
miR-21 FLuc	Molecule
-35%	Cc1cccc(N2CCN(C(=O)c3ccc(NC(=O)c4nsc5ccccc45)cc3)CC2)c1C
-3%	O=C(CCCCn1c(=O)c2ccccc2n(CC(=O)Nc2cccc(C(F)(F)F)c2)c1=O)NCc1ccc2c(c1)OCO2
1%	CC1N=C2c3ccccc3N=C(SCC(=O)NCCc3ccccc3)N2C1=O (stereo not drawn)
-30%	O=C(Cn1cc(SCc2cccc(F)c2)c2ccccc21)N1CCCC1
0%	COc1ccccc1NC(=O)CSc1nc(-c2ccc(C(C)(C)C)cc2)c(C#N)c(=O)[nH]1
-2%	COc1cc(NC(=O)CCc2c(C)nc3c(c(C)nn3-c3ccccc3)c2C)cc(OC)c1OC
26%	O=C(Nc1ccc2nc(SCC(=O)N3CCCc4ccccc43)sc2c1)c1ccccc1
-12%	CC(C)c1ccc(NC(=O)CN2C(=O)CCc3cc(S(=O)(=O)N4CCOCC4)ccc32)cc1
-6%	CCOc1ccc(C2C(=O)N(C3CCCCCC3)CC(=O)N2Cc2ccccc2)cc1OC (stereo not drawn)
-3%	CCOc1ccccc1NC(=O)N1CCc2c(sc3c2CCCC3)C1c1ccccc1 (stereo not drawn)
-3%	COc1ccc(CNS(=O)(=O)c2cnc(N)nc2)cc1
8%	CCN(c1ccccc1)c1nnc(NC(=O)Nc2ccc(Br)cc2)s1
-2%	CC(=O)c1ccc(NC(=O)CSc2nc(-c3ccc(C)cc3)nc3c2c(=O)n(C)c(=O)n3C)cc1
-15%	CCc1ccc2oc(-c3cc(NC(=O)c4cc(OC)c(OC)c(OC)c4)ccc3O)nc2c1
-3%	Cc1ccc(NC(=O)N2CCc3cc(S(=O)(=O)N4CCC(C)CC4)ccc32)cc1F
0%	CCc1ccc(NC(=O)C(CC)n2c(=O)c(C(F)(F)F)nc3ccccc32)cc1 (stereo not drawn)
0%	CCOc1ccc(CCNC(=O)Cn2nc(CC)n3c(cc4ccccc43)c2=O)cc1
2%	Cc1cc(C)c2c(CC(=O)Nc3ccc(S(=O)(=O)Nc4nc(C)cc(C)n4)cc3)coc2c1
-5%	COc1cccc(CNC(=O)CSc2nc3ccccc3nc2Cc2ccccc2)c1
-6%	COc1ccc(-c2onc(C)c2C)cc1S(=O)(=O)N1CCN(c2ccc(Cl)cc2)CC1
-2%	Cc1ccc(C)c(Nc2nnc(-c3ccc(C)c(S(=O)(=O)N4CCCCC4)c3)c3ccccc23)c1
-24%	CCc1ccc(NC(=O)CSc2nc(C)cc(COC)c2C#N)cc1
-56%	Cc1onc(-c2ccc(Br)cc2)c1C(=O)Nc1ccc(Br)cc1F
23%	Cc1ccc(-n2ncc(C(=O)NCc3cccs3)c2C2CCN(C(=O)OC(C)(C)C)CC2)cc1
-8%	Cc1cccc(C(c2sc3nc(-c4ccco4)nn3c2O)N2CCN(c3ccccc3F)CC2)c1 (stereo not drawn)
16%	CSc1ccc(CCNC(=O)C(C)n2c(C)c3cnn(-c4ccccc4)c(=O)c3c2C)cc1 (stereo not drawn)
11%	CCCCOc1ccc(CNC(=O)C2CCN(c3nnc(-n4cccc4CNc4ccc(C)cc4)s3)CC2)cc1
-5%	COc1ccc(S(=O)(=O)c2cn(Cc3ccccc3)c3ccc(OC)cc3c2=O)cc1
-4%	CC(NC(=O)C(=O)Nc1c2c(nn1-c1ccccc1)CSC2)c1ccccc1 (stereo not drawn)
-1%	CCOC(=O)c1c(C)c(C(=O)NCCc2ccc(OC)cc2)c(C)n1CC
8%	CCCn1c(=O)c2sccc2n2c(CCCC(=O)Nc3cccc(CC)c3)nnc12
-19%	COC(=O)c1ccc(Nc2ncnc3c2cnn3-c2ccccc2)cc1
-4%	Cc1ccc(Cl)cc1N1CCN(c2nc3ccccc3c3nc(-c4cccnc4)nn23)CC1
-14%	COc1ccc(NC(=O)Nc2cc(-c3cn4cccnc4n3)ccc2C)cc1
4%	CCOC(=O)CNC(=O)Nc1cc(C(=O)NCc2ccccc2OC)ccc1N1CCCC1
23%	CCN1C(=O)c2ccccc2Sc2ccc(NC(=O)COc3ccc(Cl)cc3)cc21
15%	CCCC(=O)Oc1c(Sc2ccc(C)cc2)c(C)nn1-c1ccccc1
?	Cc1c(NS(=O)(=O)c2ccccc2)cc(C(C)C)c(O)c1S(=O)(=O)c1ccc(Cl)cc1
-1%	Cc1ccccc1NC(=O)c1c(NC(=O)c2cccs2)sc2c1CCC(C)C2 (stereo not drawn)
0%	CCC1CCCCN1S(=O)(=O)c1ccc2c(c1)CCCN2C(C)=O (stereo not drawn)
3%	CCOc1ccc(-n2cc(-c3ccccc3)c3c(Nc4cccc(F)c4)ncnc32)cc1
4%	N=c1n(CCO)c2ccccc2n1Cc1ccccc1F
0%	O=[N+]([O-])c1ccc(C(c2sc3nc(-c4ccco4)nn3c2O)N2CCN(Cc3ccccc3)CC2)cc1 (stereo not drawn)
-4%	Cc1cc(C)cc(NC(=O)Nc2nnc(N(C)C3CCCCC3)s2)c1
2%	Cc1cccc(N(C)C(=O)Cn2cnc3nc4c(cc3c2=O)CCCC4)c1
-5%	Cc1cc(C)cc(NC(=O)N2CCN(C)c3ncccc32)c1
25%	CCOC(=O)c1c(NC(=O)c2ccc(S(=O)(=O)N3CCC(C)CC3)cc2)sc2c1CCN(C)C2
2%[7.66 µM]	CCCCn1c(C)cc2c(c1=O)C1O[C@](c3ccsc3)(Cc3cc(OC)c(OC)cc31)O2

# Given with tabs: part of the list above
Compound	miR-21 FLuc
Cc1c(NS(=O)(=O)c2ccccc2)cc(C(C)C)c(O)c1S(=O)(=O)c1ccc(Cl)cc1	?
Cc1ccccc1NC(=O)c1c(NC(=O)c2cccs2)sc2c1CCC(C)C2 (stereo not drawn)	-1%
CCC1CCCCN1S(=O)(=O)c1ccc2c(c1)CCCN2C(C)=O (stereo not drawn)	0%

# The listing continues.
miR-21 FLuc	Molecule
2%	O=C(NCC(c1cccnc1)N1CCN(Cc2ccccc2)CC1)C(=O)Nc1cccc(F)c1 (stereo not drawn)
?	COc1ccc(Nc2cc(C(=O)NCCCN(C)C3CCCCC3)c3ccccc3n2)cc1
-2%	CCOC(=O)c1c(NC(=O)c2cc(-c3ccc(OC)cc3)on2)sc(C)c1C
-11%	COc1ccc(-c2nn(CC(=O)NCc3ccccc3)c3c2cnc2ccc(F)cc23)cc1
2%	COc1ccc(OC)c(NC(=O)c2cc3c(=O)n4cccc(C)c4nc3n2C)c1
1%	COC(=O)c1cc2c(cc1NC(=O)c1c(C)nn(-c3ccc(C)cc3)c1-n1cccc1)OCO2

# Among those listed so far, 8 have a furan ring, fused or not:
miR-21 FLuc	Molecule
-26%	Cc1cccc(C)c1NC(=O)c1oc2ccc3c(c2c1C)C(=O)CC(C)(C)O3
26%	Cc1c(C(=O)Nc2ccc(F)cc2)oc2ccc(S(=O)(=O)N3CCCCCC3)cc12
-3%	COCCN(Cc1ccco1)C(=O)c1cc2c(Cl)nc3ccc(C)cc3c2s1
-45%	CN(C)c1ccc(CNc2nc(-c3ccco3)nn2S(=O)(=O)c2ccc3ccccc3c2)cc1
-13%	Cc1nc(N2CCOCC2)c2c(C(=O)NCc3ccc(Cl)cc3)c(C)oc2n1
2%	Cc1cc(C)c2c(CC(=O)Nc3ccc(S(=O)(=O)Nc4nc(C)cc(C)n4)cc3)coc2c1
-8%	Cc1cccc(C(c2sc3nc(-c4ccco4)nn3c2O)N2CCN(c3ccccc3F)CC2)c1 (stereo not drawn)
0%	O=[N+]([O-])c1ccc(C(c2sc3nc(-c4ccco4)nn3c2O)N2CCN(Cc3ccccc3)CC2)cc1 (stereo not drawn)

# A portion of the library, so the mix of outcomes need not match the whole.
